Assay outcomes (PubChem BioAssay)
Menin-MLL FL inh – qHTS Assay for Inhibitors Targeting the Menin-MLL Interaction in MLL Related Leukemias: Competition With Fluorescein Labeled MLL-derived Peptide | FP activity change, % at 61.4 µM | Fluorescence polarization, fluorescein-MLL peptide displacement from menin | 290,000 tested, under 10 active; inconclusive = falling polarisation curve, or a change in total fluorescence; inactive = total fluorescence flat and polarisation flat or rising; no compound was filed as active; the % refers to the polarisation; negative = inhibition;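 further: % of control where 0% means no effect; inhibitors lower the polarisation; unlabelled MLL peptide was the positive control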
* hit, by the source's call; ? = inconclusive; & = joins results of further samples; [ ] = remark or other dose. Some of the compounds tested (hit frequency here may not be typical).

SMILES | Menin-MLL FL inh
C[C@@H](C(=O)Nc1ccc2ccccc2c1)[C@@H]1C[C@@]1(C)[C@@H](NS(=O)(=O)c1ccc2ccccc2c1)c1ccccc1 | 3.1
COC(=O)C(C(C)=O)C(=O)C(Cc1ccccc1)NC(=O)OCc1ccccc1 (stereo not given) | -13[11.7 µM]
O=C(O)c1ccc2c(c1)C(=O)N(CCc1ccc(O)cc1)C2=O | -2.3
Cc1cc(N)c2ccccc2[n+]1CCCCCCCCCC[n+]1c(C)cc(N)c2ccccc21 | 1.4
CNC1CCc2cc(OC)c(OC)c(OC)c2-c2ccc(OC)c(=O)cc21 (stereo not given) | -0.2
CC(C)C[C@H](NC(=O)[C@H](CC(C)C)NC(=O)[C@@H](Cc1c[nH]c2ccccc12)NC(=O)[C@H](Cc1ccccc1)NC(=O)[C@@H](Cc1c[nH]c2ccccc12)NC(=O)[C@H](CCC(N)=O)NC(=O)[C@H](CCC(N)=O)NC(=O)[C@@H]1CCCN1C(=O)[C@H](CCCCN)NC(=O)[C@@H]1CCCN1C(=O)[C@H](N)CCCN=C(N)N)C(N)=O | 0.3
O=c1c2c3c(sc2n2cnnc2n1C1CCCCC1)CCC3 | -0.7
Cc1cc(C)nc(-n2nc(C)c3c(C)c(C)c(C)nc32)n1 | 2.9
CC(C)NC(=O)N1CC[C@@]2(CCCN(C(=O)c3cccn3C)C2)C1 | -4.4
COc1cccc([C@H](O)Cn2cc(-c3cccc(CON=C(C)C)c3)nn2)c1 | 0.3[11.7 µM]
CCCn1c(C)cc(C(=O)CSc2nnc3n(CCC)c(=O)c4ccccc4n23)c1C | 0.4
CCN(CC)CCN1C(=O)C(O)=C(C(C)=O)C1c1ccccc1 (stereo not given) | -0.6
O=c1c2sccc2nc(SCc2cc(=O)n3ccccc3n2)n1Cc1ccccn1 | -4.4
CCCCNS(=O)(=O)c1ccc2nc(-c3cccnc3)cc(C(=O)NCCCN(CC)CC)c2c1 | -1.1
COC(=O)NC(c1ccc2c(c1)OCO2)C(C(=O)OC)C(=O)OC (stereo not given) | 0.8
COC(=O)CNC(=O)C1(C)C=CC2(CCCCC2)N1C(=O)OC (stereo not given) | -1.0
COC[C@H]1OC=C[C@@H](OC)[C@@H]1OC | -4.3
CN(C)c1ccc(-c2nc(NCCN3CCOCC3)c3ccccc3n2)cc1 | -1.4
CCCCCC#CC[C@@H](O)/C=C/C=C/C=C\[C@@H](O)CCCC(=O)O | -1.0
COc1ccc(-c2ccc(-c3noc(-c4ccc(OC)c(OC)c4)n3)c(OC)n2)cc1 | 3.6

Laid out differently: 2 of the compounds above.
Menin-MLL FL inh | Compound
1.4 | Cc1cc(N)c2ccccc2[n+]1CCCCCCCCCC[n+]1c(C)cc(N)c2ccccc21
-0.2 | CNC1CCc2cc(OC)c(OC)c(OC)c2-c2ccc(OC)c(=O)cc21 (stereo not given)

(continued)
SMILES | Menin-MLL FL inh
CC(O)CCCCn1c(=O)c2c(ncn2C)n(C)c1=O (stereo not given) | 2.2
CC1=CC2C(C(C)C)CCC(C)(O)C2CC1 (stereo not given) | 0.1
Nc1nc(CC(=O)CSc2ccc(Cl)cc2)nc(Nc2ccc(F)cc2)n1 | 5.5
CCOC(=O)OCC1OC(C#Cc2ccc(C(C)(C)C)cc2)C=CC1OC(=O)OCC (stereo not given) | 1.5[11.7 µM]
Cc1ccc(S(=O)(=O)N2CCN(C3CCC(c4ccccc4)CC3)CC2)cc1 (stereo not given) | 5.1
O=S(=O)(c1ccc2c(c1)OCCO2)N1CCN(c2nc(-c3cccnc3)nc3ccccc23)CC1 | -0.8
COC(=O)N1CCC2(CC1)CCN(C(c1ccccc1)c1ccccc1)CC2 | 0.0
CC[C@H](C)[C@@H](NC(=O)O[C@@H]1C(=O)c2ccc(OC)cc2O[C@H]1c1cccc(C(F)(F)F)c1)C(=O)OC | 1.7
COc1cccc(CC(NC(C)=O)C(=O)NC2CCN(c3ncccc3[N+](=O)[O-])CC2)c1 (stereo not given) | -0.1
CO[C@@H]1COC(=O)[C@H]2CCCN2C(=O)[C@@H](C)COC(=O)C/C=C\[C@H]1C | -6.3[11.7 µM]
Cc1c(Cl)cccc1Nc1ncccc1C(=O)OCC(O)CO (stereo not given) | -2.5
COc1ccc([C@@H]2[C@@H](O)[C@H](O)[C@@H](C)N2C)cc1OC | 1.1
COc1cccc(Cn2c(=O)cnc3cncnc32)c1 | ?
c1ccc(CNc2cc(-c3ccoc3)ncn2)cc1 | ?
Cc1cnc(CNc2ccnc(-c3c(C)noc3C)n2)cn1 | -1.4
Cc1ccc2c(c1)C(c1ccncc1)=NNC(c1ccc(C(C)C)cc1)=N2 | -1.6
N[C@@H](CSS(=O)(=O)O)C(=O)O | -12
COC(=O)NC(/C=C/c1ccccc1)C(C(C)=O)C(=O)OC (stereo not given) | -1.2
O=C(NC(=S)Nc1cc(S(=O)(=O)N2CCOCC2)ccc1N1CCOCC1)C1CCCC1 | 1.9
CC[C@H](C)[C@H](NC(=O)[C@H](Cc1cnc[nH]1)NC(=O)[C@@H](N)CCC(=O)O)C(=O)N1CCC[C@H]1C(=O)N[C@@H](C)C(=O)O | -0.3
O=C(O)c1cc(=O)c2cc(Cl)ccc2[nH]1 | -4.8
COC(=O)N[C@@H](c1cccc(C)c1)[C@@H](C)[N+](=O)[O-] | 1.2
COc1cc(/C=N\Nc2ccc([N+](=O)[O-])cn2)ccc1OCC(=O)O | -0.4
Cc1ccc(S(=O)(=O)n2c3ccc(F)cc3c3nc(C)sc32)cc1 | 1.9
C=CCn1c(SCC(=O)OC)nc2sc3c(c2c1=O)CCN(C)C3 | 4.4
CC1C(=O)CC(c2ccco2)NC1c1ccco1 (stereo not given) | -1.4
COCC(=O)N1CCC2(CCCN(C(=O)Nc3cccc(C#N)c3)C2)CC1 | -0.5
CC1CCc2sc(C(=O)N=Nc3c(O)[nH]c4ccccc34)cc2C1 (stereo not given) | 8.1
COc1ccc(CNc2ccnc(-c3cccnc3)n2)c(OC)c1 | 2.7
COc1ncc2nc(-c3cc(F)cc(F)c3)c(=O)n(-c3ccccc3)c2n1 | 2.4
CN(C)C1C(=O)C(C(N)=O)=C(O)[C@@]2(O)C(=O)C3=C(O)c4c(O)ccc(Cl)c4C(O)[C@H]3C[C@@H]12 (stereo not given in full) | ?
C=CC1=C2C=C(C3CC3)N(C(CO)CO)C=C2C(=O)C(C)(OC(=O)c2ccco2)C1=O (stereo not given) | -2.4[11.7 µM]
O=C(c1cccc(F)c1)N1CCC[C@@]2(CCN(c3ccccc3)C2)C1 | -7.8
CC(C)OC(=O)[C@@H]1CC[C@H](C)[C@@H](CCC[C@@H]2CC=C[C@H](CC#N)O2)O1 | 1.1
CCCn1c(-c2ccc(F)cc2)nc2c(NCCN(C)C)nc(C)nc21 | 0.7
COc1cccc([C@@H]2Oc3ccc(Br)cc3C[C@H]2OC(=O)NS(=O)(=O)c2ccc(C)cc2)c1 | 3.8
O=C(CO)[C@@H](O)C(O)[C@@H](O)CO (stereo not given in full) | 1.3
OCC1O[C@@H](O[C@@H]2C(CO)OC(O)C(O)C2O)C(O)C(O)C1O (stereo not given in full) | 3.5
COc1cnc(-c2ccccn2)nc1Oc1cccc(C(F)(F)F)c1 | 4.1
CCOC(=O)c1ccc(C#Cc2ccc3c(c2)C(C)(C)CCS3)nc1 | 1.0
COc1ccc(/C=C(\C#N)C(=O)OCC(=O)NCc2ccc(Cl)cc2)cc1 | 4.6
CCCCn1c(C)cc2c(c1=O)C1O[C@](c3ccsc3)(Cc3ccccc31)O2 | 7.4[11.7 µM]
COc1ccc(OC)c(Nc2nc(N)nc(CSc3nnc(-c4ccncc4)o3)n2)c1 | 0.6
O=C1CC(C(=O)Nc2ccc(Br)cc2)C2(CCCC2)O1 (stereo not given) | 3.8
C[C@@]12C(=O)OC(=O)[C@@]1(C)[C@@H]1CC[C@@H]2O1 | 86[activator]
N#Cc1ccc2c(c1)C[C@]1(CCCCN3C(=O)c4ccccc4C3=O)Oc3c(c(=O)oc4ccccc34)C2O1 | -0.1[11.7 µM]
COc1ccc(-c2noc(CC(=O)O)c2-c2ccc(OC)cc2)cc1 | 0.7
Cc1ccccc1-c1nc(NCCN2CCOCC2)c2ccccc2n1 | -2.4
NC(N)=NCCC[C@@H](N)C(=O)NCC(=O)N[C@@H](CC(=O)O)C(=O)N[C@@H](Cc1c[nH]c2ccccc12)C(=O)O | -4.9
CCN(CC)CCCC(C)n1c(-c2ccccc2)nc2c(NCCOC)nc(C)nc21 (stereo not given) | 1.3
CCCCCCCC/C=C\CCCCCCCC(N)=O | -6.4&-3.6&-7.3
O=C(N/N=C1/CCCc2ccccc21)c1cc([N+](=O)[O-])cc([N+](=O)[O-])c1 | 0.3
CCC(=O)N1CCc2cc(Br)cc(S(=O)(=O)Nc3c(C)n(C)n(-c4ccccc4)c3=O)c21 | -2.4
c1ccc2c(-n3ccnc3)nc(-c3ccoc3)nc2c1 | 17
COC(=O)C(C(=O)OC)C1c2ccccc2C=C(C)N1C(=O)OC (stereo not given) | 1.8[11.7 µM]
CSCC[C@H](NC(=O)[C@H](CCCNC(=N)N)NC(=O)[C@H](Cc1ccc(O)cc1)NC(=O)[C@@H]1CCCN1C(=O)CNC(=O)[C@H](CCC(=O)O)NC(=O)[C@H](CC(=O)O)NC(=O)[C@H](CCCCN)NC(=O)[C@H](CCCCN)NC(=O)[C@H](CCC(=O)O)NC(=O)[C@H](C)N)C(=O)N[C@@H](CCC(=O)O)C(=O)N[C@@H](Cc1cnc[nH]1)C(=O)N[C@@H](Cc1ccccc1)C(=O)N[C@@H](CCCNC(=N)N)C(=O)N[C@@H](Cc1c[nH]c2ccccc12)C(=O)NCC(=O)N[C@@H](CO)C(=O)N1CCC[C@H]1C(=O)N1CCC[C@H]1C(=O)N[C@@H](CCCCN)C(=O)N[C@@H](CC(=O)O)C(=O)O | 0.5
O=C(O)C1CC=CCC1C(=O)Nc1cccc(Cl)c1Cl (stereo not given) | -0.9
O=S(=O)(c1ccccc1)N1CCC[C@@]2(CCN(Cc3nccs3)C2)C1 | -1.0
COC(=O)[C@H](COC(C)(C)C)NC(=O)O[C@@H]1C(=O)c2cc(OC)ccc2O[C@H]1c1cccc(OC)c1 | 2.6
Cc1ccccc1-c1nccc(-n2ccnc2)n1 | -2.8
Additional results:
SMILES | Menin-MLL FL inh
CCC(=O)NC(/C=C/c1ccccc1)c1cc([N+](=O)[O-])c2cccnc2c1O (stereo not given) | 3.5
Cc1nc2ccccc2c2oc(C(=O)N3CCc4ccccc43)cc12 | -1.5
COc1cccc(-c2cncnc2NCc2ccc(OC)cc2OC)c1 | -3.5
COc1cccc(CS(=O)(=O)c2nnnn2-c2ccccc2)c1 | -6.9
c1ccc(-n2ncc3c(N4CCN(c5ccccn5)CC4)nc(N4CCOCC4)nc32)cc1 | 13
COc1ccc([C@@H]2CC(=O)c3c(O)cc(O[C@@H]4O[C@H](CO)[C@@H](O)[C@H](O)[C@H]4OC4O[C@@H](C)[C@H](O)[C@@H](O)[C@H]4O)cc3O2)cc1O (stereo not given in full) | 3.7
COC(=O)c1ccccc1NC(=O)c1c(O)c2cccc3c2n(c1=O)CCC3 | 3.4
CC(C)(C)c1ccc2c(S(=O)(=O)O)c(C(C)(C)C)ccc2c1 | 4.9
Cc1ccc2c(C(=O)CN3CC(C)CC(C)C3)c(C)[nH]c2c1 (stereo not given) | 0.3
COc1ccc([C@]23Cc4c(ccc5ccccc45)C(O2)C2=C(CC4(CCCCC4)OC2=O)O3)cc1 | 0.2[11.7 µM]
COC(=O)Sc1nnc(-c2ccc(Br)cc2)o1 | 1.7
N#Cc1cccc(-c2nc3cnc(N4CCOCC4)nc3n(C3CC3)c2=O)c1 | ?
FC(F)Oc1ccc(/C=N/N2CCCCC2)c(OC(F)F)c1 | 2.8
COc1ccc(C(=O)N(O)c2ccccc2)cc1 | -1.1
Cc1ccc([S+](=O)([O-])N(c2ccccc2)[S+](=O)([O-])C(F)(F)F)cc1 | -0.5
C[N+](C)(C)CCC(=O)c1cccc2ccccc12 | 2.9
O=C(/C=C/c1ccc([N+](=O)[O-])cc1)/C=C/c1ccco1 | 13
CN(Cc1ccco1)c1ncnc2ccc(-c3ccccc3C#N)cc12 | -2.9
COc1ccc2c(c1)C(c1ccc(C)cc1)CC(=O)O2 (stereo not given) | 4.7[94.6 µM]
CSC1=C(C#N)C(c2cccs2)CC(=O)N1C (stereo not given) | 2.4

Copied from the entries so far, 14 compounds:
SMILES | Menin-MLL FL inh
CCC(=O)NC(/C=C/c1ccccc1)c1cc([N+](=O)[O-])c2cccnc2c1O (stereo not given) | 3.5
Cc1nc2ccccc2c2oc(C(=O)N3CCc4ccccc43)cc12 | -1.5
COc1cccc(-c2cncnc2NCc2ccc(OC)cc2OC)c1 | -3.5
COc1cccc(CS(=O)(=O)c2nnnn2-c2ccccc2)c1 | -6.9
c1ccc(-n2ncc3c(N4CCN(c5ccccn5)CC4)nc(N4CCOCC4)nc32)cc1 | 13
COc1ccc([C@@H]2CC(=O)c3c(O)cc(O[C@@H]4O[C@H](CO)[C@@H](O)[C@H](O)[C@H]4OC4O[C@@H](C)[C@H](O)[C@@H](O)[C@H]4O)cc3O2)cc1O (stereo not given in full) | 3.7
COC(=O)c1ccccc1NC(=O)c1c(O)c2cccc3c2n(c1=O)CCC3 | 3.4
CC(C)(C)c1ccc2c(S(=O)(=O)O)c(C(C)(C)C)ccc2c1 | 4.9
Cc1ccc2c(C(=O)CN3CC(C)CC(C)C3)c(C)[nH]c2c1 (stereo not given) | 0.3
COc1ccc([C@]23Cc4c(ccc5ccccc45)C(O2)C2=C(CC4(CCCCC4)OC2=O)O3)cc1 | 0.2[11.7 µM]
COC(=O)Sc1nnc(-c2ccc(Br)cc2)o1 | 1.7
N#Cc1cccc(-c2nc3cnc(N4CCOCC4)nc3n(C3CC3)c2=O)c1 | ?
FC(F)Oc1ccc(/C=N/N2CCCCC2)c(OC(F)F)c1 | 2.8
COc1ccc(C(=O)N(O)c2ccccc2)cc1 | -1.1

New compounds follow:
SMILES | Menin-MLL FL inh
O=S(=O)(c1cccc(S(=O)(=O)N2CCC(N3CCCCC3)CC2)c1)N1CCOCC1 | -1.2
CC1=CCC2CC1C2(C)C (stereo not given) | -2.3
Cc1ccnc(NC(=O)CCCOc2ccc(Cl)cc2C)c1 | -1.4
Cc1ccc(O)c(C(=O)c2cnn(C(=O)COc3ccccc3C#N)c2)c1 | 3.6
